# Screening results: PubChem, National Center for Advancing Translational Sciences (NCATS)
# HPGD inh = blocks human HPGD enzyme activity. Potency, µM, without a hit: at the highest dose activity change, negative = inhibition, usual class: inhibitors. purified HPGD, NADH fluorescence kinetic, PGE2 substrate. P15428. hit rate 4.3% among 150,000. AID 894; active = well fitted inhibition curve with a large enough effect (not every such curve was filed as active); inconclusive = small, poorly fitted or top-dose-only effect, or another doubt; inactive = no such curve, though single readings can be large or run the other way;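 note: top concentration of the series not given in the record; plate controls included wells without enzyme; inactives centre near -10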
# Target sequence (P15428 whole entry, looked up): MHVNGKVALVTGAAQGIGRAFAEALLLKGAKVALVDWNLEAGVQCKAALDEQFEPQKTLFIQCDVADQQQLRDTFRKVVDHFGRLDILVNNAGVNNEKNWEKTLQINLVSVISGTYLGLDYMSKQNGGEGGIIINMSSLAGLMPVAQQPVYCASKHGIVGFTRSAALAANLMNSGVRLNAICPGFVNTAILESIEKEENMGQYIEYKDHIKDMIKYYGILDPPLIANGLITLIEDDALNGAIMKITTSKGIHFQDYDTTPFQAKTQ
#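 20 nM HPGD preincubated 15 min at room temperature with compound in 50 mM Tris-HCl pH 8, 0.01% Tween 20. Started with 1 mM NAD+ and 30 uM prostaglandin E2; NADH fluorescence (360/450 nm) read 5 times over 30-s intervals, last minus first.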
# Numbers without * were called inactive; ? = inconclusive; & = joins results of further samples. % is set by controls: 0 for no effect and ±100 for the full control effect; potency is the fitted concentration of half-maximal effect. Some of the compounds tested, so the mix of outcomes need not match the whole.
SMILES,HPGD inh
Cc1ccc2cc(C#N)c(SCC(=O)NCC3CCCO3)nc2c1C (centres undefined),-10%
CC(=O)Oc1c(S(=O)(=O)c2ccc(C)cc2)c(C)nn1-c1ccccc1,?
CCOC(=O)c1c[nH]c2c(C)cc(C)cc2c1=O,-14%
Cc1cc(C)c(C)c(OCC(=O)O/N=C(\N)c2ccccn2)c1,-15%
COC(=O)CCN(c1ccccc1)S(=O)(=O)c1ccc(OC)cc1,-11%
O=C(CCC1CCCCC1=O)c1ccccc1 (centres undefined),-19%
COc1ccccc1NC(=O)CN1CCN(S(=O)(=O)c2ccc(Br)cc2)CC1,-1%
COc1ccc2sc(NC(=O)CC(C)C)nc2c1,-24%
CCOC(=O)N1CCN(S(=O)(=O)c2ccc(F)c(C(=O)Nc3cccc(Cl)c3C)c2)CC1,-24%
CCCCNC(=O)c1cc([N+](=O)[O-])[nH]n1,-8%
CS(=O)(=O)N(CC(=O)NCc1ccc2c(c1)OCO2)Cc1ccc(Cl)cc1,-5%
CCSc1nnc(C)n1-c1ccc(C(=O)O)cc1,-16%
CCS(=O)(=O)N1CCC[C@H]2CN3CCc4cc(OC)ccc4[C@@H]3C[C@@H]21,-4%
CC1CCCCC1N1CN=C(Nc2nc3ccccc3s2)NC1 (centres undefined),-6%
C/C=C(/C)C(=O)O[C@@H]1[C@H](OC(=O)C=C(C)C)c2c(ccc3ccc(=O)oc23)OC1(C)C,?
Cc1ccc(C)c(NC(=O)COc2cccc3c2CCN(Cc2ccccc2C)C3=O)c1,-9%
O=C1Nc2ccc(S(=O)(=O)NCc3ccccn3)c3cccc1c23,?
Cc1nn(C)c(C)c1CNC(=O)c1cc2n(n1)C(C(F)(F)F)CC(c1cccs1)N2 (centres undefined),-18%
Cn1c(-c2ccc3c(c2)OCO3)cnc1N,-18%
COc1cccc(C2=NCCc3cc4c(cc32)OCO4)c1OC,-4%

# Rewritten as tab-separated lines: entries from further up.
SMILES	HPGD inh
CCCCNC(=O)c1cc([N+](=O)[O-])[nH]n1	-8%
CS(=O)(=O)N(CC(=O)NCc1ccc2c(c1)OCO2)Cc1ccc(Cl)cc1	-5%
CCSc1nnc(C)n1-c1ccc(C(=O)O)cc1	-16%
CCS(=O)(=O)N1CCC[C@H]2CN3CCc4cc(OC)ccc4[C@@H]3C[C@@H]21	-4%
CC1CCCCC1N1CN=C(Nc2nc3ccccc3s2)NC1 (centres undefined)	-6%
C/C=C(/C)C(=O)O[C@@H]1[C@H](OC(=O)C=C(C)C)c2c(ccc3ccc(=O)oc23)OC1(C)C	?

# The results go on:
SMILES,HPGD inh
Cn1c(C(=O)NCCCN2CCCC2=O)cc2c(=O)n(C)c3ccccc3c21,?
O=C(CC1=NCCNC(c2ccccc2)C1)c1ccccc1O (centres undefined),25µM*
CCOC(=O)C1(c2csc(N)n2)COC(=O)C1 (centres undefined),2%
CC(C)OCCCNC(=O)c1ccc(N(C)S(C)(=O)=O)cc1,-3%
CNC(=S)NCCc1ccc(OC)c(OC)c1,-7%
Cc1nc2ccc(C(=O)O)cc2c2c1CC(C)S2 (centres undefined),?
Cc1ccccc1C(=O)NN1C(=O)CSC1=S,-15%
O=C(Nc1ccccc1)OCC1CCCN2CCCCC12 (centres undefined),-8%
COC(=O)Nc1ccc(S(=O)(=O)N2CCCc3ccccc32)cc1,-5%
Cc1scc(-c2n[nH]c(=S)n2C(C)c2ccccc2)c1C (centres undefined),25µM*
CCOC(=O)c1sc(=S)n(-c2ccc(C)cc2)c1SC,?
COc1cc(/C=N/NC(=O)c2cc3ccccc3cc2O)ccc1OCCN1CCCCC1,?
CCC(C)c1ccccc1OCCn1ccnc1 (centres undefined),-1%
O=S(=O)(c1cccc2c(I)cccc12)N1CCCNCC1,-11%
CC(C)NS(=O)(=O)c1ccc2c(c1)NCC2,-2%
COc1ccccc1/C=C\C=N\n1c(-c2ccc(Cl)cc2)n[nH]c1=S,13µM*
[O-][n+]1c2c(nn1-c1ccccc1Cl)-c1nonc1CC2,-15%
O=Cc1ccc(CO)o1,-10%
Cc1cc(C)cc(C(=O)NCCn2cc(SCC(=O)N3CCOCC3)c3ccccc32)c1,-12%
COc1cccc(C2CC(c3ccc(C)cc3)n3ncnc3N2)c1 (centres undefined),-6%
O=C(CCCC(=O)N(CC(=O)NC1CCCC1)Cc1ccc2c(c1)OCO2)Nc1ccccn1,-3%
CCOC(=O)C1CCN(C(=O)Nc2ccc3nccnc3c2)CC1,?
S=C1CCSc2ccc(Cl)cc2N1,-10%
CCc1ccccc1NS(=O)(=O)c1ccc(SC)cc1,1%
Cc1c(O)cc2n(c1=O)-c1ccc(Cl)cc1C2(C)C,-10%
CCCc1[nH]nc2c1C1(C(=O)N(CC)c3ccccc31)C(C#N)=C(N)O2 (centres undefined),0%
C=CCn1c(C)cc(C(=O)CSc2ccc(NC(C)=O)cc2)c1C,-2%
CCn1c(N)c(C(=O)NCCCOC)sc1=S,14µM*
NC(=O)c1ccc(-n2nnnc2SCC(=O)Nc2ccc(N3CCOCC3)c(Cl)c2)cc1,-19%
COc1ccc(C2C3=C(CC(C)(C)CC3=O)Oc3ncn(Cc4ccco4)c(=N)c32)cc1 (centres undefined),-5%
COc1ccc(-c2ccc(-c3noc(-c4ccco4)n3)c(OC)n2)cc1,?
C=CCOC(=O)N[C@H](/C(C(=O)OC)=C(\C)NCc1ccccc1)c1ccc(Br)cc1,0%
CC(=O)Nc1ccc(S(=O)(=O)N=S(C)C)cc1,-6%&-7%
O=c1[nH]c(SCc2ccccc2)nnc1-c1ccccc1,-24%
O=C(COc1ccc(S(=O)(=O)N2CCCC2)cc1)NCCC1=CCCCC1,-10%
C[C@@H]1CCCC(CC(=O)O)(CC(=O)O)C1,-7%
CNC(=S)N1C2CCC1CC(NC(=O)NC13CC4CC(CC(C4)C1)C3)C2 (centres undefined),-15%
COc1ccc(/C=C/C(=O)c2ccc(NC(=O)c3cccs3)cc2)cc1OC,-30%
CC1CCC(N2CC(=O)N(Cc3ccc4c(c3)OCO4)C(c3ccc(F)cc3)C2=O)CC1 (centres undefined),-10%
CCOc1ccccc1N1CCN(C(=O)C(F)(F)F)CC1,-6%
O=C(Cc1ccc(S(=O)(=O)N2CCOCC2)s1)NCC1CCCCC1,-2%
COc1ccc(C)cc1N(C)C(=O)c1coc(=O)c2ccccc12,-9%
CCOc1cc(CNc2ccc3c(c2)OCCO3)cc(Br)c1OCC,-18%
O=C(CN(c1ccc(Cl)cc1)S(=O)(=O)c1ccccc1)N1CCN(c2ccccc2)CC1,-16%
O=C(CSc1ncn[nH]1)Nc1ccc([N+](=O)[O-])cc1Br,-27%
Cc1cccc(NC(=O)CSc2ncnc3c2oc2ccccc23)c1,-17%
Cc1cccc([C@@H]2CN(C)CCc3c2cc(O)c(O)c3Cl)c1,-1%
Oc1ccc(-c2csc(Nc3cccnc3)n2)cc1,-17%
Cn1c(=O)[nH]c(=O)c2c1nc(CN1CCN(c3ccccc3F)CC1)n2CCCc1ccccc1,7%
Cc1ccc(S(=O)(=O)Nc2nc(C)c(NC(=O)OCCCl)s2)cc1,-12%

# Overlap with the part before: 3 compounds, then new ones.
SMILES,HPGD inh
Oc1ccc(-c2csc(Nc3cccnc3)n2)cc1,-17%
Cn1c(=O)[nH]c(=O)c2c1nc(CN1CCN(c3ccccc3F)CC1)n2CCCc1ccccc1,7%
Cc1ccc(S(=O)(=O)Nc2nc(C)c(NC(=O)OCCCl)s2)cc1,-12%
CC(C)CC(=O)N1CCC(O)(CS(=O)(=O)Cc2ccccc2)CC1,7%
Cc1cc(C)cc(OCC(=O)Nc2ccccc2N2CCCCC2)c1,-11%
N#CCCn1c(=O)c(-c2ccccc2)nc2cnc(Oc3cccc(Cl)c3)nc21,?
O=[N+]([O-])c1cc(C(F)(F)F)ccc1NCCCCNS(=O)(=O)c1ccc2ccccc2c1,-17%
O=C(COc1ccc(Cl)cc1Cl)OCn1nnc2ccccc2c1=O,-12%
O=C(CN1C(=O)C2C3C=CC(C3)C2C1=O)N1CCc2ccccc2C1 (centres undefined),-10%
Cc1cc(C)c(OCCNC(=O)c2ccccc2Sc2ccccc2C#N)c(C)c1,-6%
Cc1c(Cl)cccc1NC(=O)CCC(=O)NNC(=O)c1ccco1,-5%
Cc1ccc2c(c1C)NC(C(=O)O)C1CC=CC21 (centres undefined),10µM*
O=C(O)Cn1c(O)c(C=Nc2ccccc2)sc1=S,?
CCCCS(=O)(=O)CC(COc1ccccc1)OC(=O)c1ccccc1 (centres undefined),-14%
CCC1CCCCN1CCNC(=O)c1[nH]c(C)c(C(C)=O)c1C (centres undefined),-3%
CCOC(=O)c1c(C)[nH]c(C=O)c1Cc1cccc(Cl)c1,-20%
CCCc1nc2ccc(NC(=O)c3cccs3)cc2c(=O)n1Cc1ccc(Cl)cc1,?
COc1ccc(CNC(=O)/C=C/c2ccc(OCCCF)cc2)cc1,-11%
O=C(NC1CCCCC1)C(c1ccc2ncccc2c1)N(Cc1ccco1)C(=O)c1ccc2c(c1)OCCO2 (centres undefined),-12%
O=C(NC(=S)N1CCOCC1)C12CCC3CC(CC(C3)C1)C2,-9%
C[C@@H](C(=O)O)[C@H]1C[C@]1(C)[C@H](NC(=O)OCc1ccccc1)c1ccccc1,-6%&-10%
CCN1CCC(=NNC(=O)c2ccc(C)c([N+](=O)[O-])c2)CC1,-14%
O=C(CSc1nc(-c2ccccc2)cc(C(F)(F)F)n1)c1cccc([N+](=O)[O-])c1,-23%
COc1cc(/C=N\Nc2nc3ccccc3[nH]2)cc(OC)c1OC,?
N#CCc1nc2c3c4c(sc3ncn2n1)CCCC4,-8%
Cc1cc(-c2ccccc2)nc2cc(C(=O)NCCCn3ccnc3)nn12,?
COc1ccc(CN(C)C(=O)COC(=O)c2ccc3c(c2)OCO3)cc1OC,-13%
CCN(CC)CCC[C@H](C)Nc1c2ccc(Cl)cc2nc2ccc(OC)cc12,?
N[C@H](Cc1ccc(Cl)cc1)C(=O)O,-21%
CNC(=O)NC(=S)NC(=O)c1ccc(OC)cc1,-10%
CCOC(=O)C1CCN(c2cc(C)nc3cc(-c4cccc(F)c4)nn23)CC1,?
COc1ccc(C(C[N+](=O)[O-])c2c(-c3ccccc3)cc3ccccn23)cc1OC (centres undefined),2%
CC(C)(C)c1csc(NC2=NS(=O)(=O)c3ccccc32)n1,-13%

# Ordered by count of non-hydrogen atoms (rising): some entries from above
SMILES,HPGD inh
Cc1cc(-c2ccccc2)nc2cc(C(=O)NCCCn3ccnc3)nn12,?
CCN(CC)CCC[C@H](C)Nc1c2ccc(Cl)cc2nc2ccc(OC)cc12,?
COc1ccc(C(C[N+](=O)[O-])c2c(-c3ccccc3)cc3ccccn23)cc1OC (centres undefined),2%

# Further results follow.
SMILES,HPGD inh
CCCCC1=CC2=C(c3ccco3)C(=O)C(C)(OC(=O)c3cccs3)C(=O)C2=CO1 (centres undefined),-21%
Cc1ccc(S(=O)(=O)Cc2ccc(C(=O)N3CCN(c4cc(C)ccc4C)CC3)o2)cc1,-10%
COc1cc(C(=O)NCCC(C)C)c([N+](=O)[O-])cc1OC,-11%
O=C(CCC(=O)Nc1ccc(Oc2ccccc2)cc1)NCCO,-3%
COc1ccc(-c2c(C)n([O-])c3c([n+]2=O)CCCC3)cc1,-15%
COc1ccc(NC(=O)COC(=O)/C=C/c2ccc(OC)c(S(=O)(=O)N3CCOCC3)c2)cc1,-13%
CCOc1ccc(NC(C(=O)Nc2cccc(C(C)=O)c2)c2ccccc2)cc1 (centres undefined),-5%
c1ccc(CCCc2nc(-c3ccccn3)no2)cc1,-11%
CCn1nnnc1SCC(=O)Nc1cc(C)on1,6%
Cc1cc(C)n(-c2nc3ccccc3c(=O)n2OCc2ccc(Cl)cc2)n1,-6%
COc1cc2nc(NC(=O)c3ccccc3)[nH]c(=O)c2cc1OC,-7%
Cc1cccc(C(=O)NN(C)c2nc(-c3ccccc3)nnc2C(F)(F)F)c1,-2%
Cc1cc(C)c2c(-n3cccc3)c(C(=O)NNS(=O)(=O)c3ccc(Cl)cc3)sc2n1,5%
O=C(COC(=O)c1cc(-c2cccs2)nn1-c1ccccc1)Nc1cc([N+](=O)[O-])ccc1Cl,-1%
CN1C(=O)C2(c3ccccc31)N(C)CC(c1ccccc1)C21SC(=S)N(Cc2ccco2)C1=O (centres undefined),-18%
COc1cc(C2C3=C(CC(c4ccco4)CC3=O)Nc3ccccc3N2C(C)=O)cc(OC)c1OC (centres undefined),-18%
Cc1cccc(Nc2nc(N)nc(CN3CCN(c4ccc(F)cc4)CC3)n2)c1,-4%
CC(C)N(CCNS(=O)(=O)c1ccc(Cl)cc1)C(C)C,-13%
O=c1cc(O)nc(SCc2ccccc2)n1-c1ccccc1,-3%&-10%
COc1ccc(OCCSc2nnc(C)n2-c2ccccc2)cc1,-11%
S=C(Nc1ccccc1Cl)N(CCN1CCCCC1)Cc1ccco1,-8%
O=C(Cn1cnc([N+](=O)[O-])c1)NCc1ccc(F)cc1,-2%
Cc1nc2[nH]c(=O)[nH]c(=O)c2[nH]1,-10%
Cc1cccc(C(C)C)c1NC(=O)c1ccc(COc2ccc3c(C)cc(=O)oc3c2)cc1,?
Cc1nn(Cc2ccc(Cl)c(Cl)c2)c(C)c1NC(=O)c1noc2c1CCCCC2,-25%
CCOC(=O)Cn1c(=O)c2c(nc(Br)n2Cc2ccc(Cl)cc2)n(C)c1=O,-8%
CC(=O)Nc1ccc(S(=O)(=O)NCCc2ccc(S(N)(=O)=O)cc2)cc1,-10%
CC(C)(C)c1cnnn1-c1ccc(C(=O)CCl)cc1,14µM*
CCNC(=O)CSc1nnc(-c2cc(-c3ccc(Cl)cc3)nc3ccccc23)o1,-19%
C/C(=N\NC(=O)CC1(C)OCCO1)c1cccs1,-4%
Cc1cc(C)c(NC(=O)COc2nc3ccccc3nc2C)c(C)c1,-8%
N#CC1=C(N)Oc2n[nH]c(-c3ccccc3)c2C12C(=O)Nc1ccccc12 (centres undefined),11%
O=C(N/N=C(/CC(=O)c1cccs1)C(F)(F)F)c1ccc(O)cc1,-14%
